Source: PubChem BioAssay
NPYLR7 ag = agonists of mosquito NPYLR7 receptor, primary screen, cell-based, Aedes aegypti, calcium fluorescence, mosquito biting behavior; Aedes aegypti neuropeptide Y-like receptor 7 (NPYLR7); HEK293T NPYLR7/Galpha15, GCaMP6s calcium fluorescence; activation, % at 10 µM; 270,000 tested, 0.15% active; AID 1259423, 2018; in the data active = activation above about 40%;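 also: 0% = vehicle and 100% = reference agonist at the receptor; some compounds past the cut are filed as inactive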
NPYLR7 ag max-min = recorded beside NPYLR7 ag, whose call it bears; activation, %; measured here: Max-Min RFU normalised activation; some inactives read as strong as hits;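 span of the calcium signal over five minutes; 0% = vehicle and 100% = native peptide agonist; compound fluorescence can raise it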
Numbers without * were called inactive; & = joins results of further samples. An excerpt; count on the stated rates, not on these rows.

A first look (two entries):
Structure	NPYLR7 ag	NPYLR7 ag max-min
CCC(=O)NCCNc1ccc(C(F)(F)F)cc1[N+](=O)[O-]	14.2	8.9
O=C(CCc1ccccc1)Nc1cccc(-c2cccc(-c3ccc4c(c3)NC(=O)CO4)n2)c1	0.8	5.7

Results, previewed entries included:
Structure	NPYLR7 ag	NPYLR7 ag max-min
CCC(=O)NCCNc1ccc(C(F)(F)F)cc1[N+](=O)[O-]	14.2	8.9
O=C(CCc1ccccc1)Nc1cccc(-c2cccc(-c3ccc4c(c3)NC(=O)CO4)n2)c1	0.8	5.7
Cn1nc(-c2ccccc2)c2c1NC(=O)CC2c1cccnc1N1CCOCC1 (stereo not drawn)	-2.9	-2.9
COc1ccc(C(=O)N2CCc3ccc(NC(=O)c4ccncc4)cc3C2)o1	4.5&2.6	5.3&0.1
O=c1[nH]c(CNCc2ccccc2)nc2scc(-c3cccc(Cl)c3)c12	15.9	22.8
O=C(NC1CC1)C(NCc1ccc(N2CCCCC2=O)cc1)c1ccccc1 (stereo not drawn)	9.9	3.4
COc1ccc(OC)c(C=NNC(=O)c2cc(-c3cccs3)[nH]n2)c1	1.3	2.8
COCc1cc(=O)n2[nH]cc(-c3ccccc3)c2n1	-3.5	-4.2
CN(CC1CCOCC1)c1nc2nonc2nc1NCc1cccs1	2.9	0.9
COCC(NC(=O)c1cc(C)nc2c(C)cccc12)c1ccnn1C (stereo not drawn)	1.8	2.7
CC1Cc2cc(-c3cc(CNC(=O)CCn4ccc(=O)[nH]c4=O)no3)ccc2O1 (stereo not drawn)	-0.3	-1.6
Cc1c(Br)cccc1NC(=O)C1(C)CCN1CCc1ccccc1 (stereo not drawn)	8.6	4.6
O=S(=O)(c1ccc(Cl)nc1)N1CCC(c2nc3ccccc3[nH]2)CC1	0.8	3.1
CCc1nc2c(OCC=C(C)C)cccn2c1N(C)C(=O)CC(C)C	3.5	5.5
O=C(c1cccs1)N(CC(=O)N1CCc2sccc2C1c1ccc(Cl)cc1Cl)Cc1ccc(F)cc1 (stereo not drawn)	-1.2	-6.0
COCCn1c(SCC(=O)N(C)Cc2ccc(F)cc2)nc2sc3c(c2c1=O)CCCC3	4.8	-2.0
Cc1ccc(S(=O)(=O)c2nnn3c2nc(N2CCC(C)CC2)c2sccc23)cc1C	10.0	12.4
CC(c1cccnc1)N(C)C(=O)Cn1ccc(=O)c2ccccc21 (stereo not drawn)	12.5	8.4
N#CC(C=Nc1ccc2c(c1)OCO2)c1nc(-c2ccccc2)cs1 (stereo not drawn)	1.0	5.7
CCCCN(CC(=O)Nc1cc(C(C)(C)C)nn1-c1ccc(C)cc1)C(=O)COc1ccccc1	16.2	17.4
CC(=O)NCc1ccc(-c2csc(NC3CCCCC3)n2)cc1	6.8	8.7
COc1cccc(CN2CCn3c(nnc3C(=O)N3CCOCC3)C2)c1F	9.1	3.4
COC(=O)C1=C(C)NC2=C(C(=O)CC(c3ccc(OC)cc3)C2)C1c1ccccc1Cl (stereo not drawn)	-6.2	-7.5
CCSc1ccc(Cl)cc1C(=O)Nc1ccc(CC(N)=O)cc1	-7.8	-12.0
O=C(NCCCn1ncccc1=O)c1ccccc1	3.6	-3.4
COc1ccc(C2=Nc3ncnn3C(c3ccc(F)c(F)c3)C2)cc1OC (stereo not drawn)	17.5	16.4
CCN(CC)C(=O)C(C1CCCC1)N1CCN(C(=O)c2cccc(OC)c2)CC1 (stereo not drawn)	-2.8	-2.0
CC(C)Cc1ccc(C(C)NC(=O)Cn2ccsc2=O)cc1 (stereo not drawn)	2.3	-2.7
CCc1nc2ccc(C(=O)N3CCN(C)CC3)cn2c1N(CC)CCOC	-5.0	-5.9
CC(c1cncs1)N(C)C(=O)c1cccc(CC2CCNCC2)c1 (stereo not drawn)	5.1	5.9

(continued)
Structure	NPYLR7 ag	NPYLR7 ag max-min
O=c1c2cc(F)ccc2ncn1CCOCCO	-2.4	-1.4
COc1ccc(CN(Cc2ccco2)CC(O)COc2ccc(Cl)cc2)cc1 (stereo not drawn)	33.7	26.4
OC[C@H]1O[C@@H](Oc2ccc(O)cc2)[C@H](O)[C@@H](O)[C@@H]1O	-1.4&11.9	-5.1&1.3
O=C(O)CN1C(=O)/C(=C\c2cc(Br)cc(Cl)c2O)SC1=S	30.5	21.3
CC(=O)c1c(C)[nH]c(C(=O)OCc2cc(=O)n3cccc(C)c3n2)c1C	0.8	27.7
Cc1ccc(C(=O)NNC(=O)c2ccccc2-n2cccc2)s1	7.3	4.9
O=C(NCCN1CCOCC1)c1nn(-c2ccc(C(F)(F)F)cc2)c(=O)n(Cc2cccc(F)c2)c1=O	19.6	19.1
O=C1CC2(CCN(C(=O)C3CCOC3)CC2)Oc2cc(N3CCCC3)ccc21 (stereo not drawn)	-6.1	9.8
Cc1ccc(SCC(=O)NC(C)c2cccc(S(N)(=O)=O)c2)c(C)c1 (stereo not drawn)	0.7	2.8
CC(C)(C)NC(=O)c1cc(S(N)(=O)=O)c(Br)s1	0.4	1.4
CC1CCCC(C)N1C(=O)Cn1c(NCc2ccccc2)nc2ccccc21 (stereo not drawn)	8.0	3.2
COCCN1CCCC2(CCN(Cc3cc(OC)c(OC)c(OC)c3)C2)C1 (stereo not drawn)	6.8	3.0
Cc1ccc(S(=O)(=O)N(Cc2nccn2Cc2ccc(Cl)c(Cl)c2)C2CC2)cc1	15.1	15.6
Cc1cccc(NC(=O)C2CCN(c3ccc(-c4ccccc4)nn3)CC2)n1	-5.9	-9.0
CC(c1ccccc1)N1CCN(C(=O)c2ccccc2Cl)CC1 (stereo not drawn)	2.6	-3.5
Cc1c(C(=O)NC2CCCC2)c(C(F)(F)F)nn1C1CCCN(C(C)C)C1 (stereo not drawn)	12.4	4.6
CC(=O)C(C)n1c(=O)c2c(nc3n(C(C)c4ccccc4)c(C)c(C)n23)n(C)c1=O (stereo not drawn)	-2.5	2.8
Fc1ccccc1-c1nc(N2CCN(C3CCCCC3)CC2)c2ccccc2n1	0.5	4.3
CC(Cc1nsc(Nc2ccc(Cl)cc2)n1)=NC1CC(C)(C)NC(C)(C)C1	-2.6	-0.8
CCSCC(=O)N1CCC(n2c(C)nc3ccc(C)cc32)CC1	-3.4	-7.2
S=c1nc(-c2ccccc2)c(-c2ccccc2)n[nH]1	15.6	11.2
C=CCN1C(=O)C2(c3ccccc31)c1c(oc3ccccc3c1=O)C(=O)N2CCCO (stereo not drawn)	4.6	2.5
O=C(c1ccccc1OC(F)(F)C(F)F)N1C[C@H]2C[C@H](O)[C@@H](O)C[C@H]2C1	12.0	6.6
O=C(CSc1nncn1-c1ccccc1)NCCc1ccccc1	11.8	7.8
Cc1nccn1-c1ccnc(C(=O)N2CCN(CC(C)(C)O)CC2)c1	0.0	-6.7
COC(=O)CC(NC(=O)Cc1c(F)cccc1Cl)c1cccs1 (stereo not drawn)	10.9	4.2
Cc1cc(=O)[nH]c(N/N=C\c2ccc3c(c2)OCO3)n1	-0.9	-5.0
CN(C)c1cccc(Nc2ccc(-c3ccc(Cl)cc3)cn2)c1	-6.1	-8.9
Cc1cccn2c(=O)cc(CNc3cccc(C#N)c3)nc12	-6.0	-9.5
CCc1nc(N)sc1C(=O)N1CCC2(CCOCC2)CC1	5.6	2.6

(list continues)
Structure	NPYLR7 ag	NPYLR7 ag max-min
COc1c(Br)cc(Br)cc1/C=C(\C#N)c1nn(CCO)c(N)c1C#N	5.2	3.4
CN(C)CCn1nnnc1SCc1csc(-c2ccc(Cl)cc2)n1	0.8	-6.5
O=C(Nc1ccccc1)c1cc(S(=O)(=O)Nc2ccccn2)c(Cl)cc1Cl	-15.9	-20.2
O=C(Nc1ccc([N+](=O)[O-])cc1)Oc1ccccc1	22.3	10.9
Cc1cc(C)c(CN2CCOC(CN)C2)cc1C (stereo not drawn)	5.8	2.6
CC(=O)Nc1nc(N2CCC(C(=O)NCc3cc(F)cc(F)c3)CC2)sc1C(=O)N1CCCC1	-4.4	-7.5
Cc1ccc(C)c(N2C(=O)/C(=C/c3ccc([N+](=O)[O-])cc3)C=C2c2ccccc2)c1	1.5	10.3
O=C(NCCn1cc(SCC(=O)N2CCOCC2)c2ccccc21)c1cccs1	3.4	-0.1
COc1ccc(C(=O)CSc2ncnc3c2nnn3-c2ccc(OC)cc2)cc1	-0.4	11.5
CNC(=O)NC(=O)CNc1ccc(F)cc1Cl	9.7	6.1
O=C(NCc1ccc(F)cc1)c1ccc(CSc2nc(Cl)cc(N3CCCC3)n2)cc1	-4.6	1.4
COc1ccc(CNC(=O)c2sc(=O)n(Cc3ccc(C)cc3)c2C)cc1OC	7.7	6.3
COc1ccc2sc(N(Cc3ccccn3)C(=O)c3cc(C)no3)nc2c1	6.7	6.2
Cc1ccc(C2CCCN2CC(=O)N2CCNC2=O)cc1 (stereo not drawn)	0.9	-1.0
c1cc2c(cc1NC1CCCNC1)OCCO2 (stereo not drawn)	8.1	3.7
Cc1ccc(N2C(=O)N(c3ccc(Cl)cc3)C3CS(=O)(=O)CC32)cc1 (stereo not drawn)	-2.8	-5.1
O=C(NC1CC1)C(c1ccccc1)N1CCN(S(=O)(=O)c2cccc(Cl)c2Cl)CC1 (stereo not drawn)	5.1	1.2
CCn1c(C2CC2)nnc1S(=O)(=O)CC(=O)N(C)C1CCCc2ccccc21 (stereo not drawn)	12.5	9.5
CC1CCc2sc3ncnc(N4CCN(CCO)CC4)c3c2C1 (stereo not drawn)	1.2	-1.0
Cc1nc(-c2ccc(CNC(=O)c3cc(F)cc(F)c3)s2)cs1	3.5	8.4
Cc1ccc(C(CNC(=O)/C=C/c2c(C)nn(C)c2C)N(C)C)cc1 (stereo not drawn)	-8.4	-8.8
N#Cc1c(SCC(N)=O)nc2c(c1-c1cccs1)CCC2=Cc1cccs1	9.1	15.1
Cc1cccnc1NC(=O)NC1CC(=O)N(c2ccc3c(c2)OCCO3)C1 (stereo not drawn)	1.7	-2.9
Cc1ccc(-c2ccnc(N3CCc4c(c(CO)nn4C)C3)n2)c(C)n1	-0.9	7.8
Cc1nc(C)c(CN(CCO)C(C)C)s1	27.9	15.6
O=C(Cn1cccn1)NCc1cccnc1N1CCCCCCC1	6.9	11.2
CCCCc1ccc(S(=O)(=O)c2cnc(SCC(=O)NC3CCCCC3)[nH]c2=O)cc1	-0.2	-4.1
CCc1ccc(CN(C)C(=O)C2CCC(=O)N(CCN3CCOCC3)C2)nc1 (stereo not drawn)	3.8	3.5
COc1ccc(C(=O)N2CCN(c3ncnc4c3nnn4Cc3ccccc3)CC2)cc1OC	-10.2	-18.7
COc1cn(CC(=O)Nc2cccc([N+](=O)[O-])c2)c(CSc2nccc(C)n2)cc1=O	-3.3	-9.6

Sorted by SMILES length (ascending): some entries from above.
Structure	NPYLR7 ag	NPYLR7 ag max-min
Cc1cc(C)c(CN2CCOC(CN)C2)cc1C (stereo not drawn)	5.8	2.6
O=C(Cn1cccn1)NCc1cccnc1N1CCCCCCC1	6.9	11.2
Cc1ccc(-c2ccnc(N3CCc4c(c(CO)nn4C)C3)n2)c(C)n1	-0.9	7.8
COc1c(Br)cc(Br)cc1/C=C(\C#N)c1nn(CCO)c(N)c1C#N	5.2	3.4

The results go on:
Structure	NPYLR7 ag	NPYLR7 ag max-min
O=C(C1CNCCN1C(=O)c1cccc2nccnc12)N1CCOCC1 (stereo not drawn)	9.7	6.6
Cc1cc(=O)[nH]c(NN=Cc2ccc(C(C)C)cc2)n1	0.6	-3.0
CCCCNC(=O)c1cc(-c2cccc(OC)c2)nc2cc(C(C)(C)C)nn12	11.9	12.9
CC(C)c1cccc(C(C)C)c1NC(=O)N(CC(=O)N(CCc1c[nH]c2ccccc12)Cc1ccc(F)cc1)C(C)C	23.7	25.6
CCc1nnc(SCC2=NC3C=CC=CN3C(=O)C2)nc1CC (stereo not drawn)	-1.2	-1.9
Cc1cc(SCC(=O)N2CCCC2)nc2c(C(C)C)cccc12	12.7	9.1
CCC1c2ccsc2CCN1c1cnc2ccccc2n1 (stereo not drawn)	4.1	0.3
COc1ccc(CN2CCn3nc(C(=O)NCC4CCCO4)cc3C2=O)cc1 (stereo not drawn)	18.3	4.5
CN1C(=CC=Nc2ccccn2)C(C)(C)c2ccccc21	2.4	2.2
Cc1cccc(C(=O)Nc2nc3ccc(OCC(F)(F)F)cc3s2)n1	-3.4	-4.0
COc1ccc(-c2csc(=Nc3ccc(C)cc3C)n2N2CCOCC2)cc1	-4.7	-9.7
Cn1cc(-c2ccc3c(c2)COCC(=O)N3Cc2ccccc2)cn1	7.5	5.1
CC1C(=N)C(C)(C)OS1(=O)=O (stereo not drawn)	-7.4	-8.3
O=S(=O)(c1ccccc1F)N1CCN(c2nccc(-c3cccc(C(F)(F)F)c3)n2)CC1	4.4	1.7
Cc1cc(C(=O)N2CCN(c3nc4ccc(Cl)cc4s3)CC2)on1	-0.6	4.4
O=C(CSc1nnc(NC(=O)c2cccs2)s1)Nc1cc(C(F)(F)F)ccc1Cl	-6.7	-0.3
Cc1cccc(CNC(=O)CCc2nnc(C3CCCCC3)o2)c1	0.8	0.3
O=C(NC1CCCCC1)c1ccccc1NS(=O)(=O)c1cccc(OC(F)(F)F)c1	-1.9	8.3
O=c1c2ccccc2nnn1CSc1nc2ccccc2[nH]1	-15.9	-23.1
